TAR Tat displ – HIV-1 TAR-Tat binding disruption | HIV-1 TAR RNA, Tat peptide displacement FRET; hits give high values | z-score (no concentration beside the values) | 0.6% of 100,000 active;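 note: score is relative to mean and SD of negative controls; some compounds called inactive have numbers as strong as hits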
CDC25B-CDK2 inh – human CDC25B-CDK2/CyclinA binding inhibition; 0.72% of 94,000 active; P30305+P24941; z-score (no concentration beside the values); HTRF CDC25B-CDK2/CyclinA binding, anti-His/anti-Flag; hits give high values;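 note: score is relative to mean and SD of negative controls; strong numbers were not always called active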
* marks the source's active call; other numbers are inactive results; / = no result given.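 Rule for the calls: active = z-score from 3 up in half or more of its runs; inactive = the rest.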

Values run as follows: TAR Tat displ	CDC25B-CDK2 inh
O=S(=O)(N=Nc1c(O)[nH]c2ccc(Br)cc12)c1cccc2ccccc12
 : /	-2.6
Cc1ccc(C2c3c(oc4ccccc4c3=O)C(=O)N2c2ccc(C)cn2)cc1 (configuration not stated)
 : 0.1	-1.8
O=C(O)C1CC(=O)N(c2ccccc2)C1 (configuration not stated)
 : 0.89	/
Cc1oc2cc(Br)c(O)cc2c1C(=O)OC(C)C
 : 1.4	-1.2
CC(=O)N1c2ccc(S(=O)(=O)N3CCOCC3)cc2CC1C(=O)NCc1cccs1 (configuration not stated)
 : 1.4	/
O=C(CSc1nc2ccccc2[nH]1)Nc1ncc([N+](=O)[O-])s1
 : -2.4	-0.75
CC(C)(C)c1ccc(C2CC(=O)c3cnc(NC4OC(=O)c5ccccc54)nc3C2)cc1 (configuration not stated)
 : /	-0.99
COc1ccc2nc(N/C(N)=N/S(=O)(=O)c3ccc(C)cc3)nc(C)c2c1
 : /	-1.3
CC(=O)c1ccc(Cl)c(NS(=O)(=O)c2cc(Cl)c(Cl)cc2Cl)c1
 : /	-0.88
CSC1=N/C(=C\N(C)C)C(=O)N1CCOc1ccc(Cl)cc1
 : /	-0.14
COc1ccc([C@@H](C)C(=O)c2ccc(O)cc2O)cc1
 : 0.27	/
CCCC1c2ccc(C)n2CCN1C(=O)Nc1cc(C)cc(C)c1 (configuration not stated)
 : -8	-1.2
CCOC(=O)C1=C(C)OC(N)=C(C#N)C1c1ccc(F)c(F)c1 (configuration not stated)
 : /	-1.4
O=S(=O)(NCCc1nnc2ccc(SCc3cccnc3)nn12)c1ccccc1
 : -0.44	/
COc1ccc(Cl)cc1N1C(=O)C2C(c3ccccc3)OC3(C(=O)c4ccccc4C3=O)C2C1=O (configuration not stated)
 : -0.24	-0.71
CC(=O)Nc1c(-c2ccccc2)c2cc(Br)ccc2[nH]c1=O
 : /	-0.16
CC1CCC(NC(=O)CN(C)S(=O)(=O)c2ccc(C(=O)N3CCOCC3)s2)CC1 (configuration not stated)
 : 1.8	/
NC1=NC(c2cc(F)cc(F)c2)n2c(nc3ccccc32)N1 (configuration not stated)
 : 0.94	-2.4
O=c1c2c(nc3n1CCC3)sc1c(O)c(Br)ccc12
 : /	-4.2
CCOC(=O)C1CCCN(S(=O)(=O)c2csc(C(N)=O)c2)C1 (configuration not stated)
 : 1.4	/
COc1ccc2cc3c(nc2c1)N(S(=O)(=O)c1ccc(OC)c(OC)c1)CC3
 : 0.27	1.4
CS(=O)(=O)c1ccc2ccn(O)c2c1
 : /	-2.1
Cc1cc(C)n(-c2nc3c(c(=O)n2CC(=O)Nc2cc(C)on2)CCCC3)n1
 : 2	/
CN(C)C(=S)Nc1ccc(S(=O)(=O)N2CCCCC2)cc1
 : /	-0.42
O=C1CCCC2=C1C(c1cccs1)c1c(n[nH]c1-c1ccc(Cl)cc1)N2 (configuration not stated)
 : 1.1	-1.2
CCOC(=O)c1ccc2[nH]c(CSc3nnc(-c4cccc(F)c4)n3C)cc(=O)c2c1
 : 1.2	/
O=C(Cn1cc(S(=O)(=O)N2CCCC2)c(S(=O)(=O)N2CCCC2)c1)N1CCc2ccccc21
 : -0.36	/
CN(C)S(=O)(=O)c1ccc(C(=O)Nc2nc3cc4c(cc3s2)OCO4)cc1
 : 1.2	/
CSc1nc(C)c2cc(C)oc2n1
 : 0.71	-0.03
Cc1ccc2c(c1)NC(C)(C)c1sn(-c3cccc4ccccc34)c(=S)c1-2
 : /	-2.2
NC(=O)Cn1nnc2sc3c(c2c1=O)CCCC3
 : /	-0.55
CCc1nn(CC(=O)NCc2ccccn2)c(=O)c2cc3sccc3n12
 : 1.1	-1.8
O=C(CC1CC2CCC1C2)Nc1nc2ccc(Br)cc2s1 (configuration not stated)
 : -2.3	/
O=C(Cc1ccccc1)Nc1nnc(S(=O)(=O)N2CCc3ccccc32)s1
 : 1.9	-2.4
C=CCOC(=O)C1=C(C)NC2=C(C(=O)CC(C)(C)C2)C1c1ccc(OCc2ccccc2)c(OC)c1 (configuration not stated)
 : 1.3	-0.46
CCOCCCNC(=O)c1cc2sc(C)cc2n1C
 : 0.91	0.56
O=C(O)c1ccc(Cn2nc(N3CCCC3)ccc2=O)o1
 : -0.97	-1.3
CCN(CC)C(=O)C1CCN(c2ncnc3onc(C)c23)CC1
 : 2.8	/
CCN(CC)c1nc2c(c(=O)n(C)c(=O)n2C)n1Cc1ccc(F)cc1
 : /	-1.1
CCN(CC)CCn1c(NC(C)=O)nc2ccccc21
 : -0.15	0.03
Cn1c(C2CC(=O)N(c3ccc(Cl)cc3)C2)nc2ccccc21 (configuration not stated)
 : -1.3	0.1
Cn1ccc2cc(S(=O)(=O)N3CCCC(C(=O)NCCN4CCCCC4)C3)ccc21 (configuration not stated)
 : 1.4	/
COc1ccc(N=Cc2ccc(CNS(=O)(=O)c3ccc(C)cc3)o2)c(OC)c1
 : /	-0.7
O=C(Cn1c(CN2CCOCC2)nc2ccccc21)N1CCCC1
 : 1.9	-1.5
CC(c1nnc(SCC(=O)c2ccccc2)n1C)N1C(=O)COc2ccccc21 (configuration not stated)
 : -0.66	/

Continuation:
molecule	TAR Tat displ	CDC25B-CDK2 inh
CC(=O)OC(C)(C)[C@@H]1Cc2cc3ccc(=O)oc3cc2O1	1.7	/
Cc1cc(F)ccc1NS(=O)(=O)c1ccc(-c2cnc(C3CC3)o2)cc1	1.3	/
CCOc1cc(S(=O)(=O)n2ccnc2)ccc1F	-0.05	-1.7
COc1ccc(C(C2=C(O)CC(C)(C)CC2=O)C2C(=O)CC(C)(C)CC2=O)cc1O (configuration not stated)	0.18	-2.1
O=C(CC1(O)C(=O)N(CCc2ccccc2)c2ccc(Br)cc21)c1ccncc1 (configuration not stated)	-1.2	-0.41
Clc1cccc(-c2nnc(CN3CCC(Cc4ccccc4)CC3)o2)c1	2.2	-0.73
COc1ccc(-c2nc3nc(C)cc(N4CCC(C)CC4)n3n2)cc1	0.05	-0.27
CC1CCCN(C(=O)C2CCN(S(=O)(=O)c3ccc4c(c3)CCCC(=O)N4)CC2)C1 (configuration not stated)	0.81	/

Structures shown so far that have a Cl atom, in the order listed:
molecule	TAR Tat displ	CDC25B-CDK2 inh
CC(=O)c1ccc(Cl)c(NS(=O)(=O)c2cc(Cl)c(Cl)cc2Cl)c1	/	-0.88
CSC1=N/C(=C\N(C)C)C(=O)N1CCOc1ccc(Cl)cc1	/	-0.14
COc1ccc(Cl)cc1N1C(=O)C2C(c3ccccc3)OC3(C(=O)c4ccccc4C3=O)C2C1=O (configuration not stated)	-0.24	-0.71
O=C1CCCC2=C1C(c1cccs1)c1c(n[nH]c1-c1ccc(Cl)cc1)N2 (configuration not stated)	1.1	-1.2
Cn1c(C2CC(=O)N(c3ccc(Cl)cc3)C2)nc2ccccc21 (configuration not stated)	-1.3	0.1
Clc1cccc(-c2nnc(CN3CCC(Cc4ccccc4)CC3)o2)c1	2.2	-0.73

The results go on.
molecule	TAR Tat displ	CDC25B-CDK2 inh
CCCS(=O)(=O)c1nc(S(=O)(=O)c2ccc(C)cc2)c(NCCCn2ccnc2)s1	1.4	-2.5
O=c1[nH]cc(C(F)(F)F)cc1Cl	/	-2.6
CN(C(=O)Cc1noc2ccccc12)c1ccc(Br)cc1	1.3	-0.82
Cc1c(-c2nc(-c3ccc(C(C)(C)C)cc3)no2)n(C)oc1=O	/	0.79
Cc1ccc(C)c(N2CN(Cc3ccco3)CNC2=S)c1	/	-2.5
COc1ccc(-c2cc(C(F)F)n3ncc(C(=O)N4CC5(C)CC4CC(C)(C)C5)c3n2)cc1 (configuration not stated)	/	-0.71
O=[N+]([O-])c1cc(C(F)(F)F)cc([N+](=O)[O-])c1O/N=C1\CSCc2ccccc21	/	-0.24
S=C(NCCNC(=S)NCC1CC1)NCC1CC1	/	-1.3
O=C(NCCN1CCN(c2ccccc2)CC1)Nc1ccc(F)cc1F	7.7*	-2
CSCCC(NS(=O)(=O)c1ccc2c(c1)oc(=O)n2C)C(=O)NC1CCCCCC1 (configuration not stated)	/	-1.2
COCCn1c(SCC(=O)Nc2ccc(OC)cc2OC)nc2c(c1=O)SCC2	1.9	-1.9
O=c1c(S(=O)(=O)c2ccc(F)c(Cl)c2)c[nH]c2ccc(F)cc12	2.8	-11
COc1cccc(Cn2c(SCc3ccc(F)cc3)nc3cccnc32)c1	0.83	/
Cn1c(-n2cccc2)c(-c2c(-c3ccc(Cl)cc3)[nH]c3c2c(=O)[nH]c(=O)n3C)c(=O)[nH]c1=O	1.6	0.43
O=C(Nc1ccccc1F)N1CCC(CN2CCc3ccccc3C2)CC1	-0.34	/
Cc1ccn2c(=O)c(NC(=O)c3ccc(Cl)cc3)c(C)nc2c1	1.1	/
O=C(Cc1ccc(F)cc1)Nc1nnc2n1CCS2	-0.37	/
COc1ccc(OCC(O)CNS(=O)(=O)c2c(C)noc2C)cc1 (configuration not stated)	/	0.06
COc1ccc(OCC(=O)Nc2nnc3n2CCS3)cc1	0.07	/
Cc1csc(NC(=O)C(CC(C)C)NS(=O)(=O)c2ccc3c(c2)oc(=O)n3C)n1 (configuration not stated)	0.82	-0.94
C=CCc1cccc2cc(C(=O)Nc3ccc(OCC)cc3)c(=O)oc12	/	-2.6
Cc1ccc(N2CSC3=C(C#N)C(c4cccs4)CC(=O)N3C2)cc1C (configuration not stated)	-1.5	6.2*
O=C1NC(c2ccccc2)(C(F)(F)F)SC2=NCCCN12 (configuration not stated)	/	0.97
CCOC(=O)N1CCC(C(N)=O)CC1	-0.01	-0.86
Cc1cc2c(cc3c(=O)n(CCCC(=O)NC4CCCC4)nc(C)n32)o1	0.23	1.4
Cc1ccc(Nc2nc3ccc(C)cc3n3nnnc23)cc1	-1.6	-2.3
CCCCN(C)CCCNC(=O)Cn1c2ccccc2c2nc(=O)cc(C)n21	-0.15	-1.3
O=C(O)CSCC(=O)NCCNc1ncccc1C(F)(F)F	/	-1.8
CCCC1=C(C(=O)OCC)C(c2cc(OC)ccc2OC)n2c(nc3ccccc32)N1 (configuration not stated)	1.2	-0.69
O=c1c2cc3c(cc2n(Cc2ccc(F)cc2)c(=O)n1Cc1nc(-c2ccccc2)no1)OCO3	-0.37	/
Cc1cccc(C(=O)Nc2sc3c(c2C(=O)NC(C)(C)C)CCC3)c1	-0.09	-2.6
CC1=C(c2ccc(C)c(C)c2)S(=O)(=O)N=C1Nc1cc(C)on1	-1.5	-1.5

Record cards (already shown). Order of screens: TAR Tat displ, CDC25B-CDK2 inh
Entry for `Cc1cc2c(cc3c(=O)n(CCCC(=O)NC4CCCC4)nc(C)n32)o1` → 0.23, 1.4
Entry for `Cc1ccc(Nc2nc3ccc(C)cc3n3nnnc23)cc1` → -1.6, -2.3
Entry for `CCCCN(C)CCCNC(=O)Cn1c2ccccc2c2nc(=O)cc(C)n21` → -0.15, -1.3
Entry for `Cc1cccc(C(=O)Nc2sc3c(c2C(=O)NC(C)(C)C)CCC3)c1` → -0.09, -2.6
Entry for `CCCC1=C(C(=O)OCC)C(c2cc(OC)ccc2OC)n2c(nc3ccccc32)N1` (configuration not stated) → 1.2, -0.69

More results
molecule	TAR Tat displ	CDC25B-CDK2 inh
O=C(CC1(O)C(=O)N(Cc2cccc3ccccc23)c2ccccc21)c1ccc(F)cc1 (configuration not stated)	/	0.22
CS(=O)(=O)CCC(C(=O)Nc1ccccc1)N1Cc2ccccc2C1=O (configuration not stated)	1.1	/
O=c1cc(CSc2nnc(-c3ccccc3F)o2)nc2sccn12	1.3	0.41
CC1(C)CC(=O)C2=C(C1)C(c1cccnc1)Nc1ccc3ccccc3c12 (configuration not stated)	-0.84	-2.5
Oc1c(C(c2ccccn2)N2CCCCC2)cc(Cl)c2cccnc12 (configuration not stated)	1	/
O=C(C1COc2cc(S(=O)(=O)N3CCOCC3)ccc2O1)N1CCOCC1 (configuration not stated)	2.1	/
Cc1c(C(=O)N(CCN(C)C)Cc2ccco2)sc2nc3n(c(=O)c12)CCCC3	1.1	/
O=C(CCSc1nc(-c2ccco2)cc(C(F)(F)F)n1)NC1CC1	2.4	-0.15
O=C(Nc1ccc2c(c1)OCCO2)C1CC2CSCN2C12C(=O)Nc1ccccc12 (configuration not stated)	1	/
Cc1cccc(-n2nnc(-c3nc(-c4ccncc4)no3)c2N)c1	-1	/
COC(=O)c1ccc(C2/C(=C(/O)c3ccc(C)cc3)C(=O)C(=O)N2CC(C)O)cc1 (configuration not stated)	0.46	-0.24
COc1ccccc1OCCSc1nc(C)cc(C)n1	1.4	-0.28
CN1C(=O)C(C)(C)c2cc(S(=O)(=O)NCCc3nc4ccccc4n3C)ccc21	0.01	/
Cc1cc(-c2onc(C)c2-c2noc(C)n2)no1	/	-1.2
CCn1ncc(CN(C)C(=O)c2cnn3c(C(F)F)cc(-c4ccccc4)nc23)c1C	-0.12	-0.56
O=C1CSC(=S)N1c1ccc(N2CCCCCC2)c(N2C(=O)CSC2=S)c1	/	0.25
Cc1nc2c(c(C)nn2C)c(C)c1CCC(=O)NC(C)CCc1ccco1 (configuration not stated)	-0.06	0.15
CCC1CCCCN1C(=O)Cn1c(C(=O)OC)cc2ccsc21 (configuration not stated)	/	-1.3
COC(=O)C1=C(C)Nc2nc(SC(C)C)[nH]c(=O)c2C1c1cccnc1 (configuration not stated)	1.4	-1.7
Cc1cccc(-c2nc(SCc3cc(=O)n4c5c(sc4n3)CCCC5)n[nH]2)c1	0.51	/

Assay outcomes as filed in PubChem BioAssay.
